UCH37 DUB inh – human UCH37 deubiquitinating enzyme inhibition; Q9Y5K5; purified proteasome/UCH37, Ub-AMC cleavage fluorescence; inhibition, % (no concentration beside the values); hit rate 0.33% among 330,000; AID 588478;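 active = mean of two replicates above 20%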;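 note: 0% = compound-free wells with enzyme and 100% = wells lacking proteasome; stock transfer was 100 nL into about 20 µL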
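Schedule: 30 min plus 25 min, room temperature / Material: human UCH37 within purified proteasomes / Technique: AMC fluorescence intensity at 355/460 nm / Buffer or medium: pH 7.4 Tris-HCl (50 mM) with ovalbumin, ATP-MgCl2, DTT / Controls: wells without proteasome as full block, compound-free enzyme plus substrate as uninhibited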
HNF4A DNA FP – change in binding of human HNF4 alpha to DNA; P41235; HNF4a-FITC DNA binding, fluorescence polarization, 1 h; activity change, % at 10 µM; hit rate 0.3% among 360,000; AID 1224865; in the data active = activity change above about 30%, passing the limit was not always enough;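 note: controls were the assay level and a saturating level of protein; the project sought stronger binding though the title names inhibitors; some compounds called inactive have numbers as strong as hits; positive values seem to mean higher polarization but the record does not say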
Target sequence (P41235 whole entry, looked up): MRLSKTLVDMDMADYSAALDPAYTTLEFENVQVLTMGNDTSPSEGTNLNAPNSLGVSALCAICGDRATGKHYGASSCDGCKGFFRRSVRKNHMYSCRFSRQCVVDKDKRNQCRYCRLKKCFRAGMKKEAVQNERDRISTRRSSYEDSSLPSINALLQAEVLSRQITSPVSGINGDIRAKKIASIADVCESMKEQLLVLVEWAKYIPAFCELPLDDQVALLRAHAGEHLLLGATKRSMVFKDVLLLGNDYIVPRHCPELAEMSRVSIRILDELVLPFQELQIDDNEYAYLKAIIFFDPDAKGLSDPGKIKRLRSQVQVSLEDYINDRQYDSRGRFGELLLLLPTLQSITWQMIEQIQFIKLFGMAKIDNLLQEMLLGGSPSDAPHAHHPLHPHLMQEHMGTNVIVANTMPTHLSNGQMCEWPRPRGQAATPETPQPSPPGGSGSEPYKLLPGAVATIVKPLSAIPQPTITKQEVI
Ecoli growth – inhibitors of Escherichia coli growth | hit rate 0.21% among 330,000 | OD600 absorbance (test concentration not listed) | AID 1053175 | OD600, 23 h; stronger effect = lower value;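 active = OD600 absorbance below the run mean of sample wells minus 3.6 SD, in any replicate, cut at about 0.56 in these data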;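 note: stock transfer was 300 nL into about 60 µL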
A1 inh – inhibitors of the anti-apoptotic protein A1, read as caspase activation; MEF A1-2A-BIM cells, Caspase-Glo 3/7 luminescence, 3 h; percent of clofoctol response, vehicle zero; caspase activation, % (test concentration not listed); hit rate 0.066% among 330,000; AID 2462;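 active = over half of replicate activation scores above 10%, or exactly half above 10 with the replicate mean above 10; inconclusive = replicate mean below 10 yet half the replicates above 10; inactive = over half of replicates below 10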;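 note: wells of about 30 µL received 50 nL stock; many hits fall short of the cut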
LANA-H2A inh – blocks KSHV LANA binding to histone H2A/H2B; Q9QR71; cell-free LANA-H2A/H2B peptide, fluorescence polarization; inhibition, % (test concentration not listed); hit rate 0.6% among 320,000; in the data active = inhibition mostly above about 10%, no sharp cut-off; inactive = mostly below about 6.7%;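 note: stock transfer was 7.5 nL into about 10 µL; 0% = median of vehicle wells and 100% = median of positive control wells; one replicate is shown; the record names a cut of 25% in any replicate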
Beta2AR agonist – human beta-2 adrenergic receptor agonism by FAP; P07550; response, % (test concentration not listed); Am2.2-beta2AR cells, FAP receptor internalization, flow cytometry; reference of the scale not given here; hit rate 0.43% among 340,000;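 active = response above a set limit, near 3 SD of response in nonfluorescent compounds, cut at about 42% in these data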;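 note: stock transfer was 100 nL into about 11 µL; a reference agonist was the positive control; negative values mostly stem from fluorescent compounds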
Target sequence (P07550 whole entry, looked up): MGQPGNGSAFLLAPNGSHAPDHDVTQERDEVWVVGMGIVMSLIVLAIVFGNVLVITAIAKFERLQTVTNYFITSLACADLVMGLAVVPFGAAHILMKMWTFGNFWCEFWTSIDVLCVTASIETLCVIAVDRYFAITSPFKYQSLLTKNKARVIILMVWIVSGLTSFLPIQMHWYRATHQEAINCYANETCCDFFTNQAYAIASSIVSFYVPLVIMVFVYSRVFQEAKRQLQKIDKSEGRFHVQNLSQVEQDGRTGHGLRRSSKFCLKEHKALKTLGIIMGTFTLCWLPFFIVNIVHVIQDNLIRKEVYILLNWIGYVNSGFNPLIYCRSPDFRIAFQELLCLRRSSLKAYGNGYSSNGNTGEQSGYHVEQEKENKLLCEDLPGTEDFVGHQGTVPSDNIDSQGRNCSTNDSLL
Vif TR-FRET – HIV-1 Vif–A3G interaction blockers – biochemical, TR-FRET, GST-Vif 1-94, biotin-A3G peptide, dose response retest, primary screen (AID 1117319). TR-FRET GST-Vif / biotin-A3G peptide binding; higher % means a stronger effect; test concentration not given here; strong numbers were not always called active. inhibition, %; hits with a dose series show IC50 in µM. hit rate 0.57% among 260,000;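 active = above the screen mean plus three standard deviations and confirmed in dose response; inconclusive = results disagree or hit not tested in dose response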;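 note: Vif residues 1-94 fused to GST binding biotinylated APOBEC3G peptide 110-148; 0% = full assay without inhibitor and 100% = GST in place of GST-Vif; retest series ran down from 100 µM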
Numbers without * were called inactive; u = inconclusive; x = not tested or not shown.

Below each SMILES: UCH37 DUB inh, HNF4A DNA FP, Ecoli growth, A1 inh, LANA-H2A inh, Beta2AR agonist, Vif TR-FRET
O=S1(=O)NC(=NCCOCCO)c2ccccc21
 : 0.6, -0.5, 0.64, -0.3, -5.1, -6.7, -4.2%
O=C(C1CCC1)N1CCc2cc(S(=O)(=O)Nc3ccc4c(c3)OCCO4)ccc21
 : 0.3, -1.1, 0.725, -0.6, -2.0, -10.5, -2.3%
CC(=O)c1ccc(NC(=S)N2CCN(C(=S)Nc3ccc(C(C)=O)cc3)C(C)C2)cc1 (stereo not drawn)
 : 3.3, -0.3, 0.709, 0.3, -2.9, 9.7, 10.5%
Cc1cc(C(=O)N2CCc3ccccc32)c2ccccc2n1
 : 2.4, 3.2, 0.668, 0.3, 1.2, -4.6, 7.7%
CC(C)COC(=O)c1ccccc1OC(=O)c1ccncc1
 : 0.7, -2.8, 0.638, -0.9, -3.0, -6.7, 4.3%
COc1ccccc1CNC(=O)CSc1nc(=O)n(Cc2ccncc2)c2c1CCC2
 : 0.7, -1.3, 0.672, 1.0, 1.6, 18.8, -1.9%
O=C(NCCc1nccs1)C1CCC(=O)N(Cc2cccc(C(F)(F)F)c2)C1 (stereo not drawn)
 : -0.8, 2.6, 0.727, 0.1, -3.8, 3.8, x
Cc1ccc(S(=O)(=O)CCC(=O)OCC(=O)c2cc(C)ccc2C)cc1
 : 1.6, 7.4, 0.702, 1.1, 2.1, 4.3, 5.5%
Cc1ccc(/C=N/NC(=O)CSc2nc3ccccc3c(=O)n2-c2ccccc2C)s1
 : x, 5.2, x, -0.7, 0.0, -15.2, 6.3%
COC(=O)C1=NN(C(=O)c2cccc(Cl)c2)C(O)(C(C)(C)C)C1 (stereo not drawn)
 : -1.4, -1.4, 0.712, 0.0, 0.7, 11.0, 4.9%
Cc1[nH]c(=O)[nH]c(=O)c1N(C)C
 : 4.8, -2.8, 0.738, -0.7, -1.3, 5.6, x
CCN(C(=O)COC(=O)c1cc(S(=O)(=O)N2CCOCC2)ccc1F)C1CCS(=O)(=O)C1 (stereo not drawn)
 : 2.2, 3.4, 0.646, -0.6, 3.6, -0.4, 2.3%
COc1ccc(NS(=O)(=O)c2ccc(-n3nnc4ccccc43)c([N+](=O)[O-])c2)cc1
 : 6.8, -3.4, 0.729, 1.3, -6.9, -4.8, 2.8%
COc1ccc(Cc2nc3ccc(C(=O)N(C)CC4COCCO4)cc3o2)cc1 (stereo not drawn)
 : 1.7, -2.1, 0.703, -0.5, -1.7, 0.2, x
CCn1c(=O)c2c(nc3n2CCS3)n(C)c1=O
 : 5.2, -1.6, 0.711, 0.1, -4.0, 5.8, 0.6%
CCCC(C(=O)NC(C)(C)C)N(CCN1CCOCC1)C(=O)CNS(=O)(=O)c1ccccc1 (stereo not drawn)
 : -0.4, 4.4, 0.673, 0.5, 5.4, 13.2, x
C=CCN(CC=C)C(=O)c1c(OC)cccc1OC
 : 5.3, 0.8, 0.708, 0.5, 8.0, -1.9, -4.5%
COc1ccc(NC(=O)CN(C)C(=O)C(NC(=O)c2ccco2)C(C)C)cc1 (stereo not drawn)
 : 0.5, 4.9, 0.623, x, x, 2.9, -8.8%
CC(C)c1ccccc1NC(=O)Nc1ccc2c(c1)OCO2
 : 1.4, 0.3, 0.702, -1.9, 0.6, 1.0, x
CC(C)(C)S(=O)(=O)/C(C#N)=C/Nc1ccccn1
 : 2.2, 0.2, 0.681, 0.6, -3.9, -18.5, -9.5%

The results go on:
Below each SMILES: UCH37 DUB inh, HNF4A DNA FP, Ecoli growth, A1 inh, LANA-H2A inh, Beta2AR agonist, Vif TR-FRET
Cc1ccc2c(c1)N(CCCC(=O)Nc1cccc(C(F)(F)F)c1)C(=O)CO2
 : x, -1.2, x, 0.2, -5.4, -2.0, x
COc1cccc(C(=O)C2CCCN(C(=O)c3ccccc3Cl)C2)c1 (stereo not drawn)
 : 1.6, -9.4, 0.697, 0.5, 0.3, -2.4, x
Cc1ccc(NC(=O)CSc2ccc(-c3cccnc3)nn2)cc1
 : 2.5, -0.5, 0.658, 1.1, 2.3, -5.3, -11.7%
Cc1cc(C)cc(C(=O)NC(=S)Nc2ccc3[nH]c(=O)[nH]c3c2)c1
 : 3.3, -4.0, 0.704, 0.3, 5.6, 1.5, x
CC(C)CCOc1ccc(C(=O)NN2C(=O)NC3(CCCCC3)C2=O)cc1
 : 1.9, 1.3, 0.646, 0.5, 0.6, 3.5, 6.4%
CCN(CC)CCCNC(=S)N(CCO)Cc1cc2cc3c(cc2[nH]c1=O)OCCO3
 : -136.1, -2.8, 0.686, 0.0, -3.0, 1.8, -13.1%
Cc1ccc2cc(CN(Cc3ccco3)C(=O)C3CCCCC3)c(=O)[nH]c2c1C
 : -0.5, 1.9, 0.713, -0.2, 4.0, -4.0, -1.4%
C/C(=N/NC(=O)c1ccco1)c1ccc(Br)s1
 : x, -2.0, x, -1.7, -4.6, -4.7, x
Cc1ccc(NC(=O)CCCOc2ccccc2)cc1S(=O)(=O)N1CCOCC1
 : x, 0.2, x, -0.1, 20.0*, -9.8, x
CN1CCCN(C(=O)c2cc(-c3cccc4ccccc34)nc3ccccc23)CC1
 : -20.7, -2.7, 0.676, -0.3, 2.2, 0.1, 16.1%
CCCCOc1nc2ccccc2nc1NS(=O)(=O)c1ccc(F)cc1
 : -0.4, -1.4, 0.705, -0.1, 0.7, 10.6, -0.2%
Cc1ccc(N2CC(C(=O)Nc3cc(C(F)(F)F)ccc3N3CCCC3)CC2=O)cc1 (stereo not drawn)
 : 2.1, -2.2, 0.654, 0.9, x, -11.8, -4.5%
N#Cc1ccc(C(=O)OCC(=O)N2CCOCC2)cc1
 : -0.4, -2.9, 0.711, 0.2, 0.9, 4.2, x
NC(=O)C1CCN(S(=O)(=O)Cc2ccccc2Cl)CC1
 : 2.7, 1.1, 0.64, -0.3, 4.6, 17.2, 18.1%
Cc1nc2c3ccccc3nc(NNC(=O)CCC(=O)NC(C)C)n2n1
 : -0.4, -1.3, 0.622, 0.0, -5.9, -17.1, x
CO/N=C/CC(=O)c1ccc(-c2ccccc2)cc1
 : x, -0.6, x, -2.3, -3.7, 3.2, -2.3%
Fc1ccc2c(c1)C(c1ccncc1)=NNC(c1ccccc1)=N2
 : 0.9, -0.2, 0.737, -0.4, 0.9, -16.9, -3.0%
O=C(N/N=C/C=C/c1ccccc1)C1CC1c1ccccc1 (stereo not drawn)
 : x, -0.3, x, -0.3, 0.2, -1.4, -3.3%
O=C(O)CCCC(=O)Nc1nc2n(n1)C(c1ccc(F)cc1)CC(c1ccc(Cl)cc1)N2 (stereo not drawn)
 : -7.7, -3.0, 0.74, -0.2, 0.0, 3.0, -2.4%
Cc1ccc(CS(=O)Cc2ccc(C(=O)NCc3cccs3)o2)cc1 (stereo not drawn)
 : -1.0, 3.7, 0.677, 0.7, 1.4, -1.6, -0.1%

Next section:
Below each SMILES: UCH37 DUB inh, HNF4A DNA FP, Ecoli growth, A1 inh, LANA-H2A inh, Beta2AR agonist, Vif TR-FRET
COc1ccc(CNS(=O)(=O)c2ccc(-n3cnnn3)c(OC)c2)cc1
 : 6.6, 0.7, 0.707, 0.1, -3.3, -5.7, u
O=C(c1cc(-c2ccccc2)nc2ccccc12)N1CCCC1
 : 1.0, -0.6, 0.695, 1.5, -1.8, -2.5, x
CC(=O)NC(=S)Nc1cccc([N+](=O)[O-])c1
 : 4.1, 1.8, 0.65, 0.8, -1.3, 1.6, -7.5%
CCOC(=O)c1ccc(NC(=O)c2ccccc2C)cc1
 : -1.0, 0.6, 0.684, -5.3, -0.7, 4.8, -1.5%
O=C(/C=C/c1ccc([N+](=O)[O-])cc1)OCC(=O)N1CCCC1
 : 4.9, -4.1, 0.656, 1.0, 9.6, 5.3, 9.6%
CCOC(=O)c1c(SCc2ccccc2)n[nH]c1N
 : -1.7, 2.4, 0.672, -0.4, 4.0, -11.3, x
O=C(CSc1ncnc2sccc12)NC1CCS(=O)(=O)C1 (stereo not drawn)
 : -0.6, 5.0, 0.684, -1.5, 1.6, -3.5, -1.7%
COc1ccc(NC(=O)C2CCC(C(C)(C)C)CC2)cc1S(=O)(=O)N1CCCCC1 (stereo not drawn)
 : x, 0.2, x, -0.7, -2.5, 17.8, 2.5%
CN1CCN(C(=O)c2cc(Br)cn2C)CC1
 : 3.5, 4.0, 0.666, 1.6, -7.7, -7.0, -0.6%
C/C(=N/Nc1ccnc2cc(Cl)ccc12)c1ccc(O)cc1
 : x, 4.8, x, -1.0, -7.1, 12.3, x
O=C(Nc1ccc(Br)cc1)c1cccc(N2C(=O)C3CCCCC3C2=O)c1 (stereo not drawn)
 : 0.9, 1.1, 0.699, 0.3, 1.8, 4.1, x
C#CCOCCOCCOCCNc1nc(N2CCN(C(=O)[C@H](C(C)C)n3cc(CCO)nn3)CC2)nc(N2CCN(C(=O)[C@H](Cc3ccc(O)cc3)n3cc(CCO)nn3)CC2)n1
 : -0.3, 5.1, x, x, x, -0.1, x
Cn1c(=O)oc2cc(S(=O)(=O)NCc3ccc(C(=O)O)cc3)ccc21
 : 2.2, 5.3, 0.699, 1.2, 2.9, -135.8, -4.2%
Cc1ccc(NCC(=O)c2ccc([N+](=O)[O-])cc2)cc1
 : 4.4, -4.4, 0.673, 0.3, -4.5, 7.1, -1.5%
CC1(C)Cc2nc3sc4c(=O)n(Cc5ccccc5)cnc4c3cc2CS1
 : x, -2.6, x, 1.1, -1.5, 16.3, 0.9%
CCN1C(=O)N(CC)C2C1N(CO)C(=O)N2CO (stereo not drawn)
 : 2.9, 4.5, 0.696, -0.1, -4.3, 4.7, -0.5%
O=C(Oc1cccc(C(=S)N2CCOCC2)c1)c1ccccc1
 : 2.8, 3.6, 0.652, 0.0, -1.4, -1.5, x
COc1ccc2c(c1)OC[C@H]1[C@H]2N2C(=O)c3ccc(C)cc3NC(=O)[C@@]2(C)[C@H]1c1ccccc1
 : 2.6, -0.5, x, 0.0, 1.2, 12.0, x
Cc1ccc(NC(=O)c2cc(S(=O)(=O)NCCc3ccccc3)ccc2F)cc1Cl
 : 4.4, 2.4, 0.712, 0.2, 3.5, -1.3, -1.8%
Cc1nc(C(=O)NCCCO)cc2c1[nH]c1ccccc12
 : -87.5, 4.3, 0.669, 0.6, 2.6, 9.8, x

Following part.
Below each SMILES: UCH37 DUB inh, HNF4A DNA FP, Ecoli growth, A1 inh, LANA-H2A inh, Beta2AR agonist, Vif TR-FRET
Nc1[nH]ncc1-c1ccccc1
 : 1.7, 2.8, 0.652, -0.8, -0.4, -1.8, x
Cc1cc(C)c(NC(=O)CS(=O)CC(=O)N2CCN(c3cccc(C)c3C)CC2)c(C)c1 (stereo not drawn)
 : 6.6, -0.8, 0.713, 0.0, 3.4, 9.4, 7.2%
COc1ccc(C(=O)Nn2c(SCc3cccc([N+](=O)[O-])c3)nc3ccccc3c2=O)cc1
 : 2.8, -1.1, 0.698, -1.2, -2.0, 4.0, x
Cc1ccc(CCNC(=O)c2nnn(-c3cc(C)cc(C)c3)c2N)cc1
 : 1.6, 1.8, 0.655, 0.0, 2.6, 8.8, 9.1%

Source: PubChem BioAssay
